TRPV1 potentiator = potentiators of human vanilloid receptor 1 (TRPV1); potentiation, % at 8.33 µM; TRPV1-expressing cells, Fluo-8 calcium influx, capsaicin EC20 potentiation; host cell line not named in the record; control for the full effect not named in the record; 0.02% of 320,000 active; active means potentiation above 80%; inconclusive means 30% to 80%; inactive means below 30%; further: 0% is about no effect
Target sequence (Q8NER1 whole entry, looked up): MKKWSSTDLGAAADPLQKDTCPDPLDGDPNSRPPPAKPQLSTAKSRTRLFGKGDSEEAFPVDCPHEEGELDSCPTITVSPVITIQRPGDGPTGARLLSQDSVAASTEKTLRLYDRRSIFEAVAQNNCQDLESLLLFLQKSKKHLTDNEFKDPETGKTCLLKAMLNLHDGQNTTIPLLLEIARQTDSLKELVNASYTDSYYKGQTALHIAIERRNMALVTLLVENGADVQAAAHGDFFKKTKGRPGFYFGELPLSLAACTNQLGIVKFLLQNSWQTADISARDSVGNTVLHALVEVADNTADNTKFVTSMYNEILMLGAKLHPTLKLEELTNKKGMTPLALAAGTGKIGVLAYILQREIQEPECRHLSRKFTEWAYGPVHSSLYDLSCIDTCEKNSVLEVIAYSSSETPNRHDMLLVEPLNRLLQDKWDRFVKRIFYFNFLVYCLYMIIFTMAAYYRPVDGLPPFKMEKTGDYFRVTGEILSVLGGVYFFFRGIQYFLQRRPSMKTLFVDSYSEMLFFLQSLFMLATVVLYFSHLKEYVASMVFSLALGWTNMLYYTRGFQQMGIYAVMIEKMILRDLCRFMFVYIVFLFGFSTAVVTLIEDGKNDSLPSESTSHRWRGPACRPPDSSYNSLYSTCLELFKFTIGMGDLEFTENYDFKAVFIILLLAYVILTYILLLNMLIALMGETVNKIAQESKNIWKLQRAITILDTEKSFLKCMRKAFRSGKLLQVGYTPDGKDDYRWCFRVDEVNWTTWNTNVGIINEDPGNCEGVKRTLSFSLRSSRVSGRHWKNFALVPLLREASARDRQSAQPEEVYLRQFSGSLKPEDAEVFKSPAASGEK
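TRPV1-expressing cells were cultured overnight at 35.5C and loaded with Fluo-8 calcium dye for 40 to 90 min at room temperature. After a 10 s baseline, compound was added and calcium influx was read kinetically for 3 min (ex 480/em 520 nm).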
D2 PAM = potentiates the human D2 dopamine receptor allosterically; potentiation, % (no concentration beside the values); 0.23% of 360,000 active; DiscoveRx D2 beta-arrestin cells, luminescence, 90 min; 100% = 57 uM dopamine signal; P14416; active = potentiation of 50% or more; inconclusive = 30% to 50%; inactive = 30% or less;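 further: compound concentration not given in the record; tested on top of an EC20 dose of dopamine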
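PathHunter beta-arrestin assay in DiscoveRx D2 cells. Compounds were added with an EC20 of dopamine (50 nM final) for 90 min at 37 deg C. Luminescence was read 1 h after detection reagent, with 57 uM dopamine as the EC100 control.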
TRPML1 ag = activates the human TRPML1 channel | Q9GZU1 | TRPML1-expressing cells, Ca2+ dye fluorescence, FDSS; host cell line not named in the record; reference of the full effect not given here | activation, % (no concentration beside the values) | 0.12% of 410,000 active; in the data active = activation above about 50%; inconclusive = about 30% to 50%; inactive = below about 30%; further: 0% is about no effect; the text of the record puts the active cut at 80%
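Tet-induced TRPML1-DL cells, 1,500 per well, cultured overnight, were loaded with a no-wash Ca2+ dye for 45–90 min. Calcium fluorescence was recorded on the FDSS for 110 s after compound addition, before the EC80 agonist (4 uM 54-4) was added.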
TRPML1 blocker = blocks the human TRPML1 channel; TRPML1-inducible cells, Ca2+ dye fluorescence, FDSS; active compounds read low; inhibition of EC80 agonist-evoked calcium signal; activity change, negative = inhibition, % (concentration not given with the values); 0.02% of 390,000 active; in the data active means activity change below about -50%; inconclusive means about -30% to -50%; inactive means above about -30%;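 further: stimulus is agonist 54-4 at its EC80 concentration; on the % scale 0 is the no-effect control and ±100 the full control effect; the text of the record puts the active cut at -80%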
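TRPML1-DL cells, Tet-induced overnight (~16 h, 37 °C) at 1,500 cells/well, were loaded with Ca8 no-wash dye plus quencher for 45-90 min at room temperature. Compounds were pinned during FDSS kinetic reading; agonist 54-4 at EC80 (4 uM final) then added.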
Six1-Eya2 inh = inhibitors of human Six1/Eya2 interaction | 0.56% of 360,000 active | activity change, % (concentration not given with the values) | AlphaScreen GST-Six1/His-Eya2 binding, biochemical; active compounds read low; control for the full effect not named in the record | Q15475+O00167; in the data active = activity change below about -65%; inconclusive = about -30% to -65%; inactive = above about -30%; further: on the % scale 0 is the no-effect control and ±100 the full control effect
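Six1/Eya2 binding was read as AlphaScreen signal after compounds were pinned into GST-Six1 plus His-tagged Eya2 (5X stock 250/500 nM) in pH 8.0 Tris/NaCl/TCEP buffer, beads added, then incubated 1 h, 37 C, dark.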
CtBP-E1A blk = inhibitors of CtBP/E1A interaction. AlphaScreen GST-E1A/His-CtBP binding, 1536-well; active compounds read low; control for the full effect not named in the record. activity change, % (no concentration beside the values). 0.49% of 340,000 active. AID 651724; in the data active means activity change below about -65%; inconclusive means about -30% to -65%; inactive means above about -30%; further: on the % scale 0 is the no-effect control and ±100 the full control effect
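AlphaScreen with 125 nM GST-E1A and 125 nM His-CtBP (5X stocks) in Tris pH 8.0, 300 mM NaCl, BSA, Tween 20, TCEP. Compounds preincubated 2 h at 37 deg C, then glutathione donor/nickel acceptor beads added for 1 h at 37 deg C in dark.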
* hit, by the source's call; u = inconclusive; x = not tested or not shown; & = joins results of further samples. No enrichment for hits; overall some 0.95% were active at least once.

Order of values: TRPV1 potentiator | D2 PAM | TRPML1 ag | TRPML1 blocker | Six1-Eya2 inh | CtBP-E1A blk
COCC(C)n1c(C)cc(C(=O)COC(=O)c2ccc3ncsc3c2)c1C (stereo not drawn)
  -6.7 | 0.9 | -0.3 | 1.1 | -7.9 | -10.0
CCCCOc1ccc(C(=O)NN2CCOCC2)cc1
  x | 9.7 | 0.2 | -3.0 | 7.5 | 0.0
CCOC(=O)N1CCN(S(=O)(=O)c2ccc3c(c2)CCN3C(=O)C2CC2)CC1
  -11.8 | -11.8 | 0.2 | -10.5 | -0.1 | 4.3
CCCn1nc(C(=O)NNC(=O)c2cccc(S(=O)(=O)NC(C)C)c2)c2ccccc2c1=O
  24.5 | -47.9 | -0.3 | 16.2 | -0.2 | 3.4
COCCn1c(C)cc(C(=O)CSc2ncn[nH]2)c1C
  2.8 | 1.5 | 0.4 | 2.4 | -2.0 | 1.6
N#Cc1ccsc1NC(=O)CSc1ncn[nH]1
  -3.4 | -12.2 | 0.1 | -9.4 | -1.0 | -17.4
COc1c(C)cc(Br)cc1C(=O)Nc1ccc(C)cc1[N+](=O)[O-]
  -1.9 | 8.7 | 0.0 | 7.0 | -5.1 | -24.8
O=C(Nc1ccccc1N1CCOCC1)C1=NN(c2ccccc2)C(=O)CC1
  -17.6 | 7.8 | 0.0 | -15.8 | 6.8 | 24.9
O=C(O)/C=C/C(=O)Nc1ccc(OC(F)(F)F)cc1Br
  17.3 | 0.3 | -0.1 | 13.4 | 20.9 | 7.2
COc1ccc(N(Cc2cc3cccc(C)c3[nH]c2=O)S(=O)(=O)c2ccc(Cl)cc2)cc1
  4.8 | -8.2 | 0.1 | -11.7 | 1.0 | x
CCc1ccc(CNC(=O)c2ccc(OC3CCN(C(C)=O)CC3)c(OC)c2)nc1
  5.1 | 9.5 | 0.3 | -14.3 | 3.9 | -2.4
CC1=C(C(=O)OC2CCCCC2)C(c2ccc(C)o2)C2=C(CCCC2=O)N1 (stereo not drawn)
  27.1 | -7.0 | -0.9 | 9.8 | -4.8 | -3.5
C[C@@H]1C=C(C(=O)NC2CC2)O[C@H](OCc2ccc(CO)cc2)C1
  -19.4 | -0.9 | 1.0 | -11.7 | 1.8 | 4.1
O=C1c2ccccc2S(=O)(=O)c2cc(-c3nn[nH]n3)ccc21
  x | -8.2 | -0.3 | 2.1 | -24.3 | 0.0
CCOc1ccc(N2C(=O)CC(N3CCN(c4ccccc4F)CC3)C2=O)cc1 (stereo not drawn)
  21.0 | -3.1 | -1.4 | -6.5 | -0.3 | 0.4
Cc1ccc2c(c1)N(CC(=O)NCCCN1CCCCC1C)C(=O)c1cccnc1O2 (stereo not drawn)
  6.8 | -16.5 | -0.7&0.9 | -4.6&5.5 | -0.3 | 3.0
CCN(CC)S(=O)(=O)c1cccc(-c2n[nH]c(=S)n2Cc2ccccc2)c1
  4.4 | 0.0 | 1.6 | -14.7 | -1.5 | 3.4
S=C(NCCc1ccccc1)NCC1CCCO1 (stereo not drawn)
  -8.8 | -9.8 | -0.1 | 24.5 | -1.3 | 4.3
CC(=O)c1cccc(NC(=S)NC(=O)c2ccccc2)c1
  -15.1 | -14.6 | -0.6 | 7.3 | 0.6 | -8.3
Cn1cccc1C(=O)OCC(=O)NCCCc1ccccc1
  x | 10.1 | 2.6 | 25.8 | -8.9 | 8.7
O=C(COC(=O)c1ccccc1)Nc1ncc([N+](=O)[O-])s1
  x | -0.2 | 0.7 | 21.9 | u | -3.4
COc1cccc(CN2C(=O)CCC2(C)C(=O)NC2CCCCC2)c1 (stereo not drawn)
  3.6 | -6.3 | -0.3 | -18.5 | 8.5 | -25.7
CS(=O)(=O)Nc1ccc(Br)cc1
  x | x | -0.7 | x | 4.9 | 1.5
CC[C@]12c3[nH]c4ccc(Cl)cc4c3CCN1C(=O)[C@@H](CC(=O)NCCCOC)C[C@@H]2C(=O)N1CCN(C(=O)c2ccco2)CC1
  x | x | 0.4 | -0.3 | 1.4 | 6.0
CCOC(=O)CN(C(=O)CNC(=O)c1ccco1)C(C(=O)NC1CCCCC1)c1cccc(OC)c1 (stereo not drawn)
  13.6 | -9.6 | -0.4 | 3.0 | -0.1 | -2.7
CC(C)Oc1ccccc1/C=N/NC(=O)C1CCCC1
  -16.8 | -14.8 | 0.1 | 41.8 | 0.1 | 1.7
COc1ccc(NC(=O)CSc2nc3ccsc3c(=O)n2CCCCCC(=O)O)cc1
  -1.9 | -2.0 | -1.2 | -6.0 | -0.4 | 8.4
CCn1cc([N+](=O)[O-])c(C(=O)Nc2c(C)nn(Cc3c(F)c(F)c(F)c(F)c3F)c2C)n1
  -1.6 | -2.8 | 0.2 | 1.0 | 3.1 | 5.9
Cc1onc(-c2c(F)cccc2Cl)c1C(=O)Nc1cccc2nsnc12
  0.2 | 8.5 | 2.0 | -25.5 | 56.7 | 40.7
Cc1onc(-c2ccccc2)c1C(=O)NC1CC1
  0.3 | 3.8 | 1.2 | 18.2 | 3.3 | -12.3
CC(C)(C)C(=O)NCCc1nc2ccccc2n1CC(=O)c1ccccc1
  -15.7 | -5.6 | -0.4 | 8.3 | 2.7 | 1.8
Cc1ccc(CCNC(=O)CNS(=O)(=O)c2ccc3nc(C)sc3c2)cc1
  -14.7 | -4.4 | 0.8 | -2.4 | 3.1 | 0.6
CCN1CCN(C(=O)CSc2nc3c(c(=O)n(C)c(=O)n3C)n2C)CC1
  3.6 | -2.2 | 0.0 | 15.9 | 0.1 | 1.5
CNc1ccccc1C(C)(C)c1cc(-c2ccco2)n[nH]1
  3.2 | -7.0 | -0.3 | 41.1 | -20.5 | 2.8
C=CCNC(=S)NNC(=O)C(CC(C)C)CC(C)O (stereo not drawn)
  -16.0 | -2.3 | -0.6 | 5.2 | 12.4 | 12.5
CSc1nc2ccc(NC(=O)c3cc4ccccc4o3)cc2s1
  -21.8 | -1.1 | -0.3 | -10.7 | 0.7 | 2.6
O=C(CCC(=O)c1ccc(Cl)s1)Nc1ncccc1O
  -0.9 | 1.3 | -0.5 | 12.7 | -12.7 | -14.3
Cc1ccc(CN2CC(C(=O)NNC(=O)c3ccc(F)cc3)CC2=O)cc1 (stereo not drawn)
  24.3 | 1.1 | -0.2 | 2.9 | 2.9 | 1.3
O=C1NCCc2c1[nH]c1ccccc21
  3.1&0.1 | 4.1 | 4.4 | 29.2 | -1.7 | 2.1
COc1ccc(-c2[nH]ncc2CN2CCC(O)(c3ccc(Cl)cc3)CC2)cc1
  -0.2 | -12.3 | 0.5 | 19.3 | 3.0 | 1.5
O=C(NCCCSc1ccccc1)c1cc(Cl)ccc1O
  -22.1 | -11.3 | 0.4 | 0.6 | -11.3 | -23.0
C(/CCc1ccccc1)=N\n1cnnc1
  -5.6 | -1.5 | 0.8 | 10.5 | 9.4 | 1.9
Cc1c(C#N)c2ncn(CCCN(C)C)c(=O)c2n1-c1ccccc1
  29.4 | -6.1 | 1.1 | -3.5 | 5.5 | -0.9
Nc1cc(=O)[nH]c2ncnn12
  x | 0.3 | 0.7 | -8.2 | -2.2 | u
Cc1cc(SCc2ccccc2C)nc(=O)[nH]1
  u | -3.7 | -0.4 | -8.2 | 3.0 | x

Of the compounds above, 3 have a thiophene ring, fused or not:
Order of values: TRPV1 potentiator | D2 PAM | TRPML1 ag | TRPML1 blocker | Six1-Eya2 inh | CtBP-E1A blk
N#Cc1ccsc1NC(=O)CSc1ncn[nH]1
  -3.4 | -12.2 | 0.1 | -9.4 | -1.0 | -17.4
COc1ccc(NC(=O)CSc2nc3ccsc3c(=O)n2CCCCCC(=O)O)cc1
  -1.9 | -2.0 | -1.2 | -6.0 | -0.4 | 8.4
O=C(CCC(=O)c1ccc(Cl)s1)Nc1ncccc1O
  -0.9 | 1.3 | -0.5 | 12.7 | -12.7 | -14.3

Next section:
Order of values: TRPV1 potentiator | D2 PAM | TRPML1 ag | TRPML1 blocker | Six1-Eya2 inh | CtBP-E1A blk
NNC(=O)c1ccc(COc2ccc3ccccc3c2)cc1
  3.8 | -10.6 | -0.2 | 0.4 | -0.4 | x
COc1ccc(OC2(C)CCN(Cc3ccc(-c4ccccc4)o3)C2)cc1 (stereo not drawn)
  x | -17.8 | -0.4 | x | -17.4 | -10.2
CCn1cc(/C=N\NC(=O)c2ccc(Cl)cc2)cn1
  -1.2 | -6.7 | -0.5 | 27.9 | -2.9 | -2.5
Cc1ccc(S(=O)(=O)Nc2ccc3c(c2)C(=O)c2ccccc2-3)cc1
  x | -6.4 | -1.2 | x | -7.9 | 3.7
O=C(NC1CCCc2ccccc21)C1CCN(S(=O)(=O)c2ccccc2F)CC1 (stereo not drawn)
  -13.7 | 12.3 | 0.3 | 3.5 | 1.8 | -0.5
O=C(CSc1ccc(Cl)cc1)N1CCC(c2nc3ccccc3s2)CC1
  -8.1 | -3.3 | 4.3 | 27.8 | 7.4 | -2.9
COc1ccc(NC(=O)CCc2ccccc2)cc1S(=O)(=O)N1CCOCC1
  6.6 | 5.3 | -0.7 | 3.5 | -0.5 | x
O=C(CSc1nnc(COc2ccc(Cl)cc2)o1)NC1CCCCC1
  -2.9 | -6.5 | 1.4 | 23.2 | 4.3 | 0.3
CCCCOc1ccc(C(=O)NCCCC(=O)N2CCCCC2)cc1
  -7.9 | -0.4 | -0.2 | -6.4 | 1.3 | 0.3
CCCNC(=O)C[C@@H]1C[C@H]2c3cc(NC(=O)c4ccc5c(c4)OCO5)ccc3O[C@H]2[C@@H](CO)O1
  x | 4.2 | -0.2 | 8.1 | -5.7 | -1.7
COc1ccc(S(=O)(=O)Nc2nnc(C(C)C)s2)cc1
  -6.9 | -8.0 | 0.0 | 5.6 | 1.7 | -6.6
O=C(/C(=N/N=C/c1ccc(O)c(O)c1O)c1ccccc1)c1ccccc1
  13.6 | u | 1.9 | -21.5 | -25.1 | -10.2
CCN(CC)C(=O)c1cncc(C(=O)N(CC)CC)c1-c1ccccc1
  -11.8 | -7.9 | -0.8 | 26.4 | -0.3 | 2.3
CCCOC(=O)/C(=C\C=C\c1ccccc1)NC(=O)c1ccccc1
  -16.6 | -3.7 | 4.1 | -11.5 | -10.7 | 2.9
O=C1CCCc2ccccc2N1Cc1ccccc1
  -8.5 | -4.1 | 1.0 | 0.5 | 7.0 | x
Cc1ccc(-n2nc3c(c2NC(=O)CC(C)C)CS(=O)(=O)C3)cc1
  -2.6 | -7.1 | 0.7 | 9.7 | 2.9 | x
CCN(CC(=O)NCc1ccc(F)cc1)C(=O)COc1ccc(C)c(C)c1
  -6.8 | -14.8 | -1.5 | 7.0 | 0.8 | 4.2
COc1ccc(C/C(=N\OC(C)=O)c2ccc(OC)cc2)cc1
  11.1 | -1.7 | 0.1 | 0.0 | 12.9 | 24.6
COc1ccc(N2CCN(c3n[nH]c(N)n3)CC2)cc1
  6.3 | 2.8 | 0.6 | -14.8 | 22.8 | 1.9

Screening data: PubChem BioAssay, National Center for Advancing Translational Sciences (NCATS)
